Screens: PubChem BioAssay, National Center for Advancing Translational Sciences (NCATS)
A488 autofl – A488 region autofluorescence | AID 591 | compound autofluorescence, A488 spectral region, dye equivalency; hits give high values | max dye equivalency, M | hit rate 0.1% among 59,000; active = above 10 nM dye equivalent; inconclusive = 1 to 10 nM; inactive = 1 nM or less; about half of its hits are not listed in these tables;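 also: highest value over a series up to 38 µM; compound alone in buffer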
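Readout is A488 dye-equivalent concentration, calibrated by a per-plate six-point Alexa 488 series. Compounds in 100 mM Tris buffer pH 8.0 were incubated 15 min at room temperature. Plates were imaged using 480 nm excitation/540 nm emission filters.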
AID923 – qHTS Assay for Allosteric/Competitive Inhibitors of Caspase-1: Spectroscopic Profiling in AFC Spectral Region; hit rate 1.1% among 75,000; Potency, µM (highest dose often 57.5 µM), for the others: at the highest dose fluorescence increase, usual class: activators; compound fluorescence, AFC spectral region (405/520 nm); almost no hit is shown here; active = well fitted activation curve with a large enough effect; inconclusive = small, poorly fitted or top-dose-only effect;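 also: potency is read from the fitted curve at half-maximal effect; 0% is about no effect; scaled to a free AFC standard on each plate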
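Baseline compound fluorescence (AFC region, 405 nm ex/520 nm em) taken from the intercept of kinetic reads with 50 nM caspase-1 and 5 uM Ac-WEHD-AFC; normalized to an on-plate AFC standard curve; compounds titrated up to 57 uM.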
A647 fluor – compound autofluorescence in A647 spectral region. Compound fluorescence, A647 channel (570/671 nm), Tris buffer. max dye-equivalent concentration, M. 59,000 tested, under 10 active; active means above 1 µM dye equivalent; inconclusive means 0.1 to 1 µM; inactive means 0.1 µM or less;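 also: values scaled relative to a standard on each plate; highest value over a series up to 38 µM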
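Spectral profiling of library compounds in pH 8.0 Tris: 15 min room-temperature incubation, single ex/em pair (570/671 nm), response normalized to Alexa 647 equivalents.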
TSHR ag – TSH receptor (human) agonism; P16473; HEK293-CNG-TSHR cells (CNG channel as cAMP sensor), membrane potential dye, cAMP; Potency, µM (top dose mostly 57.1 µM), inactives show top-dose activation, actives largely listed as activators; hit rate 0.48% among 73,000; active = well fitted activation curve of enough size with the parental cells flat; inconclusive = any curve in the parental cells; inactive = parental cells flat and receptor cells flat or falling; also: potency is read from the fitted curve at half-maximal effect; % of control where 0% means no effect; weak receptor curves with flat parental cells got no call and are not listed
Target sequence (P16473 whole entry, looked up): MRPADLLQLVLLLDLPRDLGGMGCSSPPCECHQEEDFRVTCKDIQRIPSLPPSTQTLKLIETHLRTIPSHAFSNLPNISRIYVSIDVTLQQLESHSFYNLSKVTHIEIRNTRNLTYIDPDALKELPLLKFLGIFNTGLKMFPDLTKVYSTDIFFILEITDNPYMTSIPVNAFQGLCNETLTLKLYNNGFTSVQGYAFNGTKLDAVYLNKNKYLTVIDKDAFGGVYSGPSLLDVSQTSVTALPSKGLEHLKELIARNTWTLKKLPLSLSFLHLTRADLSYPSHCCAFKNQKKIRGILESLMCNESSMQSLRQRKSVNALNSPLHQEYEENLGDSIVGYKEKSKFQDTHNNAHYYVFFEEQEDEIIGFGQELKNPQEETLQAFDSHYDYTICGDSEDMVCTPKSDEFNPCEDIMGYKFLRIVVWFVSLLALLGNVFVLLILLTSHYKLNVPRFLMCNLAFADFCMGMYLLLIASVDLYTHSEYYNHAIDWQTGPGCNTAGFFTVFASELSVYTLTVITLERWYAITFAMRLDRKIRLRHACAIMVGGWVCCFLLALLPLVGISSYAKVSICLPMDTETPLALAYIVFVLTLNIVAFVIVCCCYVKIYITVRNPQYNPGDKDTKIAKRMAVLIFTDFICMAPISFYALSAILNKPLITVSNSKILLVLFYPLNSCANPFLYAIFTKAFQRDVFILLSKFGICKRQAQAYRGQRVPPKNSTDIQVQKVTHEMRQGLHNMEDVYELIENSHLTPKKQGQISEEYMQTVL
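HEK 293 cells stably expressing TSHR and a cAMP-gated CNG channel; parental CNG-only cells as counterscreen. Cells preloaded 60 min with membrane potential dye plus 100 uM RO 20-1724, then compound 30 min; fluorescence read at 590 nm.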
Resorufin autofl – resorufin region autofluorescence. Compound fluorescence, resorufin region 547/598 nm, buffer; hits give high values. max dye-equivalent concentration, M. hit rate 0.04% among 59,000. AID 588; active = above 10 nM dye equivalent; inconclusive = 1 to 10 nM; inactive = 1 nM or less; a few of its hits are not listed in these tables; also: highest value over a series up to 38 µM
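Dye-equivalent concentration values derive from comparing each well's 547/598 nm fluorescence against resorufin standards included on every plate. Incubation was 15 min at room temperature in 100 mM Tris, pH 8.0.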
The depositor's hits bear a star; i = inactive; u = inconclusive; x = not tested or not shown; & = joins results of further samples; [ ] = another dose, or the depositor's remark.

Each structure is followed by: A488 autofl, AID923, A647 fluor, TSHR ag, Resorufin autofl
> COc1cc2sc(C)nc2c2sccc12
→ i, -0.2%, 5.6e-09, u, i
> O=C(Nc1ccc2nc(-c3ccco3)[nH]c2c1)c1cccs1
→ i, 6.3%, 2.4e-08, 12%, i
> CNc1cc(-c2ccccc2C)ncn1
→ i, 1.6%, 1e-09, 13%, i
> O=C1COc2ccc(C(=O)COC(=O)CCc3ccc(S(=O)(=O)N4CCOCC4)cc3)cc2N1
→ i, -3.3%, 2.7e-09, -11%, i
> O=S(=O)(c1ccccc1)N1CCC2(CCCN(c3ccccn3)C2)CC1
→ i, 2.7%, 1e-09, u, i
> Cc1cccc(CNc2ncnc3ccc(-c4ccc5c(c4)OCO5)cc23)c1
→ i, -0.1%, 1e-09, u, i
> CCOc1ccc(C(C)(C)C)cc1S(=O)(=O)N1CCOCC1
→ i, -0.6%, 1e-09, 20%, i
> FC(F)(F)c1cc(-c2ccccc2)nc(N2CCCCC2)n1
→ i, 2.6%, 1e-09, 8%, i
> CC(=O)c1ccc(NC(=O)Nc2ncn(Cc3cccc(C)c3)n2)cc1
→ i, -2.3%, 2.4e-09, -7%, i
> CCCn1cnc2c(c1=O)c1nc3ccccc3nc1n2CCC1=CCCCC1
→ i, 0.1%, 1.7e-08, x, i
> Cc1ccc(SCc2cc(=O)[nH]c(N3CCCCC3)n2)cc1
→ i, 1.1%, 4.1e-08, -4%, i
> COc1ccc(C(c2nnnn2Cc2ccc(F)cc2)N2CCN(c3ccc(OC)cc3)CC2)cc1 (stereo not given)
→ i, -0.7%, 5.3e-09, 8%, i
> Cn1c(SCc2cccc(C(F)(F)F)c2)nnc1-c1ccco1
→ i, 4.3%, 1e-09, u, i
> CC1CCCN(CCC(=O)c2ccc(Br)cc2)C1 (stereo not given)
→ i, -0.5%, 3.3e-09, 19%, i
> COc1ccc(NC(=O)C2CCCN(S(=O)(=O)c3cccc4cccnc34)C2)c(OC)c1 (stereo not given)
→ x, 0.1%, x, 0%, x
> O=C(Nc1ccc(Cl)c(Cl)c1)N(Cc1cccnc1)Cc1ccco1
→ i, 0.2%, 3.7e-08, 18%, i
> CC(C)C1=C[C@@]23CC[C@@H]4[C@](C)(CCC[C@@]4(C)C(=O)O)[C@@H]2C[C@@H]1[C@@H](C(=O)O)[C@@H]3C(=O)O
→ i, 0.1%[11.5 µM], 2.3e-09, 3%[11.4 µM], i
> COc1ccc2cc(CCNC(=O)C3CC3)c(=O)[nH]c2c1
→ i, 1.0%, 1e-09, -5%, i
> COc1ccc(CNC(=O)[C@H](C)[C@H]2C[C@]2(C)[C@H](NC(=O)OCc2ccccc2)c2ccccc2)cc1OC
→ x, 2.5%, x, u, x
> COc1ccccc1NC(=O)CCNC(=O)Cn1ccc2ccccc2c1=O
→ i, 0.0%, 1e-09, -3%, i

Look-ups from the entries so far:
Entry of `CNc1cc(-c2ccccc2C)ncn1` in AID923: 1.6%
Entry of `COc1cc2sc(C)nc2c2sccc12` in A647 fluor: 5.6e-09
Entry of `CC(=O)c1ccc(NC(=O)Nc2ncn(Cc3cccc(C)c3)n2)cc1` in TSHR ag: -7%

Quoted at random: two compounds from above.
Each structure is followed by: A488 autofl, AID923, A647 fluor, TSHR ag, Resorufin autofl
> O=C(Nc1ccc(Cl)c(Cl)c1)N(Cc1cccnc1)Cc1ccco1
→ i, 0.2%, 3.7e-08, 18%, i
> COc1ccc(C(c2nnnn2Cc2ccc(F)cc2)N2CCN(c3ccc(OC)cc3)CC2)cc1 (stereo not given)
→ i, -0.7%, 5.3e-09, 8%, i

Next records follow.
Each structure is followed by: A488 autofl, AID923, A647 fluor, TSHR ag, Resorufin autofl
> O=c1cc(CSc2ccccn2)c2ccccc2[nH]1
→ i, -1.1%, 1e-09, -5%[11.4 µM], i
> Cc1cc(N(CN2CCCC2=O)C(=O)c2ccccc2)no1
→ i, 0.1%, 3.3e-09, 5%, i
> COC(=O)Nc1cc(C)nc2ccccc12
→ i, -0.6%, 7.6e-09, 0%, i
> CC(C)(C)n1nnnc1C(c1cc2cc3c(cc2[nH]c1=O)OCCO3)N1CCSCC1 (stereo not given)
→ i, 2.9%, 1.9e-08, 3%, i
> COc1ccc2c(c1)c(=O)oc1c(C)c3occ(C)c3cc12
→ i, 2.1%, 1.2e-08, 19%, i
> O=C(NCc1cccnc1)NC1(c2ccccc2)CC1
→ x, 1.2%, x, 9%, x
> NC(=O)CSc1ccc(Br)cc1
→ i, -1.1%, 1e-09, 3%, i
> CC(=O)N1CCN=C1SCc1ccc(Cl)cc1
→ x, 0.6%, x, -2%, x
> CN(C)CCOCCP(=O)(c1ccccc1)c1ccccc1
→ x, -0.3%, x, -3%, x
> O=[N+]([O-])c1cc(C(F)(F)F)ccc1Cl
→ x, -0.1%, x, 1%, x
> Cn1c(=O)c2c(nc(NCCNC(=O)c3ccco3)n2Cc2ccccc2Cl)n(C)c1=O
→ i, 1.6%, 2.1e-08, 1%, i
> CSc1ccccc1NC(=O)CN(c1cccc(C)c1)S(C)(=O)=O
→ i, -2.4%, 2.5e-08, 13%, i
> CCC(OC(=O)c1ccco1)C(=O)NCc1ccco1 (stereo not given)
→ i, 2.0%, 3.6e-09, -1%, i
> Cc1cc2c(c(=O)n1Cc1ccco1)C(c1cccnc1)C(C#N)=C(N)O2 (stereo not given)
→ i, -1.3%, 1e-09, -5%, i
> Cn1c(SCC(=O)c2cccs2)nnc1-c1ccco1
→ i, 1.7%, 1e-09, -6%, i
> COc1ccc(NC(=O)CSc2nnc(-c3ccoc3C)n2CCc2ccccc2)cc1
→ i, -1.2%, 1e-09, 25µM*, i
> O=C1CC2CS(=O)(=O)CC2N1c1ccc(Cl)cc1Cl (stereo not given)
→ i, 1.1%, 1e-09, 0%, i
> Cn1c(=O)c2ncn(CC(=O)Nc3ccc4oc(-c5cccc6ccccc56)nc4c3)c2n(C)c1=O
→ i, -0.4%, 9.1e-09, 6%, i
> COC(=O)C1C(=O)c2c(n[nH]c2C)CC1(C)C (stereo not given)
→ i, -0.3%, 7e-09, x, i
> CC1(C)CC(=O)C2=C(C1)OC1=C(C(=O)CC(C)(C)C1)C2c1ccc(O)cc1O
→ x, 4.9%, x, -6%[11.4 µM], x
> Cc1ccc(CN(c2ccc(C(=O)N3CCCC3)cc2)S(C)(=O)=O)cc1
→ x, 1.0%, x, 18%, x
> Cc1cc(NC(=O)Nc2cccc3ccccc23)no1
→ x, -2.1%, x, 6%, x
> CCOC(=O)N1CCC(NC(=O)C2CCCN(Cc3nc(-c4cccc(Cl)c4)oc3C)C2)CC1 (stereo not given)
→ x, 0.2%, x, u, x
> O=C(Nc1ccc2c(c1)OCO2)c1ccncc1
→ x, 2.8%, x, 0%, x
> CCN(CC)c1ccc(NC(=O)CN2CCN(CC(=O)Nc3ccccc3F)CC2)cc1
→ i, -0.1%, 1e-09, -6%, i
> Cn1c(=O)c2c(ncn2C[C@@H](O)CO)n(C)c1=O
→ i, -3.2%[25.7 µM], 2.5e-09, -5%[25.6 µM], i
> COC(=O)[C@@H](N)Cc1ccc(O)cc1
→ i, x, 1e-09, x, i
> CC(C)(C)NC(=O)C1CCCN(S(=O)(=O)c2cccc3cccnc23)C1 (stereo not given)
→ x, 1.9%, x, 0%, x
> COc1ccccc1-c1nc(NCCN2CCOCC2)c2ccccc2n1
→ i, 2.3%, 3.7e-09, -18%, i
> COc1cccc(-n2ccnc2SCC(=O)N2CCc3ccccc32)c1
→ i, -2.3%, 1.2e-08, 0%[11.4 µM], i
> O=C(Oc1ccc(-c2nnco2)cc1)N1CCCCC1
→ i, 1.5%, 1.8e-08, 1%, i
> CCOCCCNC(=O)CCCOc1ccccc1
→ i, -0.5%, 1e-09, 9%, i
> Cc1ccc(C2CC(C(F)(F)F)n3nc(C(=O)NCCN4CCOCC4)cc3N2)cc1 (stereo not given)
→ i, -0.6%, 1e-09, 3%, i
> CCOC(=O)Cc1csc(NC(=O)C2C3C=CC(C3)C2C(=O)O)n1 (stereo not given)
→ i, 0.8%, 1e-09, 2%, i
> CCOc1ccc(-c2nc(CSCC(=O)NCc3ccco3)c(C)o2)cc1
→ i, -2.0%, 3.3e-08, u, i
> Cn1c(=O)c(-c2cccc(F)c2)nc2cncnc21
→ i, 2.7%, 1e-09, u, i
> CC1(C)Oc2ccc(C(=O)NC3CCCC3)cc2N(CC(=O)N2CCOCC2)C1=O
→ i, 0.1%, 6.1e-09, -5%[11.4 µM], i
> O=C(CSCCc1ccccn1)Nc1cccnc1
→ i, -1.9%, 4.7e-08, 8%, i
> Cc1cc(Cc2c(C)c(C)c(Cc3cc(C)cc(C(C)(C)C)c3O)c(C)c2C)c(O)c(C(C)(C)C)c1
→ i, 0.7%[11.5 µM], 1e-09, 4%[11.4 µM], i
> CCOc1cc(C)c(Cl)cc1S(=O)(=O)NCc1ccco1
→ i, -1.6%, 1.4e-09, 16%, i
> CCOC(=O)C1=C(SCC(=O)Nc2ccccc2)NC(=O)C(C#N)C12CCCCC2 (stereo not given)
→ x, -2.5%, x, 10%, x
> O=C(Nc1ccccc1N1CCCC1)c1ccc2c(c1)OCO2
→ i, -1.0%, 7.1e-08, 40%, i
> O=C(OCC(=O)N1CCN(C(=O)c2ccco2)CC1)c1ccc(S(=O)(=O)N2CCCCC2)cc1
→ i, 0.2%, 1e-09, -4%, i
> C[N+]12CCC(CC1)[C@@H](OC(=O)C(O)(c1ccccc1)c1ccccc1)C2
→ i, -1.7%[25.7 µM], 4.2e-09, -5%[25.6 µM], i
> CCC1CCCCN1C(=O)CSc1nnc(-c2c[nH]c3ccccc23)o1 (stereo not given)
→ i, 4.3%, 1.1e-08, 9%, i
> COc1cccc(C(=O)N2CCN(S(=O)(=O)Cc3ccccc3)CC2)c1OC
→ i, x, 1.5e-08, x, i
> CCCNC(=O)NS(=O)(=O)c1ccc(Cl)cc1
→ i, -2.9%, 8.6e-09&7.6e-09&4.7e-08, u, i
> COc1cccc(-c2nnn(CC(=O)NC3CCCC3)n2)c1OC
→ i, -1.1%, 3.7e-09, -1%, i
> CCCn1c(SCC(=O)Nc2ccc3c(c2)OCO3)nc2c1c(=O)n(C)c(=O)n2C
→ i, 0.2%, 1.1e-08, -1%, i
> CCN(CC)CCCC(C)n1c(-c2ccccc2)nc2c(NCCO)nc(C)nc21 (stereo not given)
→ x, 2.5%, x, 3%, x

Further compounds follow.
Each structure is followed by: A488 autofl, AID923, A647 fluor, TSHR ag, Resorufin autofl
> COc1ccc(OC)c(Nc2cc(C)nc3nc(C)nn23)c1
→ x, -2.0%, x, 10%, x
> C=CCSC1=C(C#N)C(c2cccc(OC)c2)CC(=O)N1 (stereo not given)
→ i, 0.9%, 2.7e-08, 23%, i
> CCC(=O)N1CCCc2cc(S(=O)(=O)N3CCCc4ccccc43)ccc21
→ i, 0.1%, 6.6e-09, u, i
> CCCOc1ccccc1NC(=O)CC1Nc2ccccc2NC1=O (stereo not given)
→ i, 1.1%, 3e-08, 5%, i
> CN1CCCC2(CCN(C(=O)c3cnccn3)CC2)C1
→ i, -0.2%, 1e-09, -4%, i
> O=C(Nc1ccc(S(=O)(=O)N2CCOCC2)cc1)c1ccc(Br)o1
→ i, 1.4%, 3.7e-08, -5%, i
> Cc1cc(NC(=O)CCCC(=O)N(CC(=O)NCCc2ccccc2)Cc2ccc(F)cc2)no1
→ i, -0.7%, 1e-09, u, i
> C[C@]12CC[C@H]3c4ccc(O)cc4CC[C@@H]3[C@H]1CC[C@@H]2OP(=O)(O)O
→ i, 0.8%[11.5 µM], 4.5e-09, -2%[11.4 µM], i
> CCCc1nnc(NC(=O)CNc2ccc(F)cc2)s1
→ x, 2.8%, x, -14%, x
> Cn1c2ccccc2c2cnn(CC(=O)O)c(=O)c21
→ x, 5.5%, x, 28%, x
> O=C(Nc1ccccc1)c1cnc[nH]1
→ i, 4.6%, 3.1e-08, -4%, i

Some of the compounds tested (hit frequency here may not be typical).
